INS promoter inh: inhibitors of insulin promoter-driven GFP, primary screen, imaging, TRM-6 cells (human fetal islet line), eGFP reporter, cell count | AID 1273, 2008 | inhibition, % at 2 µM | 130,000 compounds, 0.9% hits | reporter expression induced with tamoxifen;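 active = inhibition above the mean plus 3 SD, with well images judged a real hit on visual review, cut at about 60% in these data, passing the limit was not always enough; inconclusive = inhibition over the cutoff but images rejected on review; inactive = inhibition not above the cutoff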
RGS16-Gao HTS: modulators of RGS16 binding to Galphao, primary screen, biochemical, human proteins, multiplexed bead flow cytometry. Regulator of G-protein signaling 16 (Homo sapiens) + Guanine nucleotide-binding protein …. bead-based flow cytometry RGS16-Galphao binding, fluorescence; actives lie on both sides. binding response (% of control), % at 10 µM. 220,000 compounds, 0.38% hits. AID 1441, 2008;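 active = below 25% or above 175%, edge rows of some plates excepted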;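 note: Galphao activated by GDP with aluminum fluoride before binding; 100% = wells without compound and 0% = beads without RGS; some results beyond the cut were filed as inactive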
PKD1 inh: inhibitors of human PKD1 kinase, biochemical, fluorescence polarization; PKD1 kinase fluorescence polarization assay; inhibition, %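 (about 10 µM by stock and volumes)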; 200,000 compounds, 0.056% hits; AID 797, 2007;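 active = inhibition of 50% or more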;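 note: controls were vehicle for no effect and a reference inhibitor for full effect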
Target sequence (Q15139 whole entry, looked up): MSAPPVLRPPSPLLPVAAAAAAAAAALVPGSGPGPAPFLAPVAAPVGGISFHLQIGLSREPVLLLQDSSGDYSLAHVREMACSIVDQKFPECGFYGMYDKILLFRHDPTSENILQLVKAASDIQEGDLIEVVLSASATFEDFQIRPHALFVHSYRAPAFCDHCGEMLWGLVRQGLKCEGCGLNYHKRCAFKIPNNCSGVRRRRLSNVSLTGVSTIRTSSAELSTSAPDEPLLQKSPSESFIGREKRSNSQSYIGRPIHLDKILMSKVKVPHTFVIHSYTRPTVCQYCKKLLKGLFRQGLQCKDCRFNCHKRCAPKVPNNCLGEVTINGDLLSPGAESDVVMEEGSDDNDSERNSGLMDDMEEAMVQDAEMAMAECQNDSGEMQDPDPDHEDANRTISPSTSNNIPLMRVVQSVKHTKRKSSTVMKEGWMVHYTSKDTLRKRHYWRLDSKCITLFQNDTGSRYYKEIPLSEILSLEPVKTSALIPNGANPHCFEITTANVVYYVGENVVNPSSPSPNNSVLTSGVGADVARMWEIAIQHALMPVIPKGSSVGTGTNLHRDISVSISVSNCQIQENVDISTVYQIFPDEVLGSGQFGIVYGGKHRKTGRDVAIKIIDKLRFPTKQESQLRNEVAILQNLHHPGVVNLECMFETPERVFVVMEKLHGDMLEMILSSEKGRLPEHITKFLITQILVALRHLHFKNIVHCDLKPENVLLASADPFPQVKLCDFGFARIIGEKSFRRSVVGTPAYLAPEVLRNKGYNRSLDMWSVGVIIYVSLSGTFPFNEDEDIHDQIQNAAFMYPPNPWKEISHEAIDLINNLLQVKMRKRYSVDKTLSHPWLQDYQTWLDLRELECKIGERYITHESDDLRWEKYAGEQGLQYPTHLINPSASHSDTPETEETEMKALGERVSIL
GALR2 agonist: GALR2 receptor agonists, primary screen, cell-based; Galanin receptor type 2 (Homo sapiens), O43603; GALR2-expressing cells, agonist activation read-out; activation, %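 (tested at 5 µM)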; 140,000 compounds, 0.48% hits;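 active = above mean plus 3 SD of all compounds, about 5% in these data, not always enough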;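 note: 0% = vehicle buffer wells and 100% = reference agonist at full effect; tested in CHO reporter cells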
HSV replic up: enhancers of HSV replication in host cells, fold increase, host cell viability; HSV replication augmentation in cells; maximum fold increase; 220,000 compounds, 0.005% hits;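 active = peak rise of 1.5-fold or more in the series; inconclusive = self-fluorescent or not available for retest; tested in PC3 cells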;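 note: first round at 10 µM; read as green reporter fluorescence; hits show the peak of a series up to 25 µM; 1 = signal of infected wells without compound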
INS promoter inh cell count: also measured in INS promoter inh; calls as there; normalized cell count, %; measured here: cell count, toxicity; reference of the scale not given here;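 cells exposed to compound for 48 h; stained nuclei by imaging scaled within each plate; lower means fewer cells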
HSV replic up primary fold: second read-out of HSV replic up, no call of its own (marks repeat the call); fold increase; compound at 10 µM; measured here: primary screen fold increase 10 uM; tested in PC3 cells;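 GFP signal in the first replicate; 1 = infected wells without compound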
The depositor's hits bear a star; i = inactive; ? = inconclusive; . = no result given.

smiles | INS promoter inh | INS promoter inh cell count | RGS16-Gao HTS | PKD1 inh | GALR2 agonist | HSV replic up | HSV replic up primary fold
CCn1c(N)c(C(N)=O)sc1=S | -48 | 93 | 108 | 7 | -2.0 | i | 0.95
S=C(NCc1ccc(Cl)cc1)Nc1ccccc1 | -44 | 82 | 80 | -4 | -1.6 | i | 1
COc1ccc(/C=N/NC(=O)c2ccc(F)cc2)cc1CN1CCc2cc(OC)c(OC)cc2C1C (centres undefined) | . | . | 105 | -5 | . | i | 0.77
CCc1ccc(C(=O)NC(=S)Nc2ccc(N3CCOCC3)cc2)cc1 | . | . | 101 | 0 | . | i | 1
COc1ccc(N2CCN(/C(=N\S(=O)(=O)c3ccc(C)cc3)Nc3nc(C)cc(C)n3)CC2)cc1 | -62 | 65 | 103 | 4 | -0.9 | i | 1.1
Cn1c(SCC(=O)CC(=O)Nc2ccccc2)nnc1-c1ccc(O)cc1 | 25 | 142 | 112 | 0 | -0.6 | i | 0.77
Cc1c(NC(=S)N/N=C/c2ccc([N+](=O)[O-])cc2O)c(=O)n(-c2ccccc2)n1C | . | . | 106 | . | . | i | 1
O=C(Nc1ccc(Cl)cc1)N1CCCN(Cc2ccccc2F)C1 | 1 | 58 | 104 | 8 | -2.3 | i | 0.72
c1ccc(C(c2ccccc2)N2CCN(Cc3nc(-c4cnccn4)no3)CC2)cc1 | . | . | 103 | . | . | i | 0.94
CCCSc1nc(O)c(C(c2ccc(OC)c(O)c2)c2c(O)nc(SCCC)n(C)c2=O)c(=O)n1C | -10 | 91 | 55 | -8 | -1.1 | i | 1.1
CCCCCc1cccnc1 | . | . | 105 | . | . | i | 0.88
CCOC(=O)Cn1c(=O)cnc2ccccc21 | -17 | 109 | 98 | 3 | -0.3 | i | 0.88
CCOC(=O)N1CCN(C(=O)Cc2c(C(=O)O)n(C)c3ccccc23)CC1 | . | . | 98 | 7 | . | i | 1
O=C(CSC1=NCCS1)N1CCN(c2ccccc2)CC1 | 21 | 143 | 78 | 3 | -1.9 | i | 0.91
CCOC(=O)c1[nH]c2ccccc2c1NC(C)=O | . | . | 106 | . | . | i | 1.2
COC(=O)c1ccc(NC(=S)NC(=O)c2cc(-c3ccccc3)nc3ccccc23)cc1 | -3 | 55 | 100 | -14 | -1.1 | . | .
O=C(NCc1cccnc1)C(=O)NCC(c1ccco1)N1CCN(c2ccccc2F)CC1 (centres undefined) | -34 | 109 | 103 | -9 | -1.2 | i | 1.1
O=C1c2ccccc2C(=O)N1CCCc1nc(-c2ccc(Cl)cc2)no1 | . | . | 104 | 3 | -0.7 | i | 0.75
COc1cc(/C=C/c2ccc(O)cc2)cc(OC)c1 | . | . | 100 | . | . | i | 0.63
CC(C)C(NC(=O)c1ccccc1)C(=O)OCc1cc([N+](=O)[O-])cc2c1OCOC2 (centres undefined) | . | . | 100 | -2 | -1.0 | i | 1.2
Cc1ccc2nc(C)c(C)nc2c1N | 57 | 110 | 102 | -5 | -1.7 | i | 0.88
COc1ccccc1N1CCN(C(=O)c2cc(-c3cccs3)on2)CC1 | -8 | 133 | 101 | -6 | -1.1 | i | 1.1
Cc1cc(C(=O)NCc2cccs2)ccc1[N+](=O)[O-] | -6 | 97 | 103 | -15 | -0.1 | i | 0.94
CSc1oc(-c2ccc(F)cc2)nc1S(=O)(=O)c1ccccc1 | 73 | 136 | 97 | -8 | -1.0 | i | 0.75
COc1cc(/C=C(/C#N)C(=O)Nc2ccc(C)cc2)ccc1Oc1nc(Cl)ncc1F | -32 | 135 | 102 | -2 | -0.7 | i | 0.9
O=C(O)c1ccc(N/N=C/c2ccc3nccnc3c2)cc1 | . | . | 100 | . | . | i | 1
CN(C)c1nc(NCc2ccccc2)nc(N/N=C/c2ccc(Br)cc2)n1 | -37 | 94 | 102 | 13 | . | i | 0.66
CCOC(=O)C1CCN(Cc2c(O)c3ccccc3oc2=O)CC1 | 29 | 98 | 106 | -8 | . | i | 1.1
O=Cc1cc2ccccc2nc1SCc1ccc(Cl)c(Cl)c1 | 9 | 104 | 114 | -5 | -1.1 | i | 0.84
Cc1cscc1NC(=O)/C=C/C(=O)O | . | . | 92 | . | . | i | 1
O=C(CNc1ccc(C(F)(F)F)cc1[N+](=O)[O-])OCC(=O)c1ccccc1 | -21 | 91 | 95 | 0 | -0.8 | i | 0.84
CCOc1cc2c(cc1/C=C(/C#N)c1ccc(C(=O)O)cc1)OCO2 | -31 | 94 | 106 | 8 | . | i | 0.96
CS(=O)(=O)N1CCC(C(=O)NCc2ccc3c(c2)OCO3)CC1 | . | . | 100 | 5 | . | i | 1.2
Cc1ccc2nc(-c3ccccc3Cl)cc(C(=O)Nc3cc(C)on3)c2c1 | -60 | 82 | 102 | 0 | 17* | i | 1.1
O=C(N/N=C1/CC2C=CCC12)c1ccc(Br)o1 (centres undefined) | -186 | 21 | 33 | -1 | -2.6 | i | 1.1
O=C(Nc1ccc(Br)c(C(F)(F)F)c1)c1ccc(C(F)(F)F)cc1 | . | . | 100 | . | . | i | 0.8
O=C(/C=C\NCC(=O)c1ccccc1)c1ccccc1 | 53 | 93 | 186 | -2 | -1.5 | i | 0.89
CCOC(=O)C1=C(CSc2nc(-c3ccccc3)ccc2C#N)OC(N)=C(C#N)C1c1ccc(OC)cc1 (centres undefined) | -84 | 116 | 109 | -2 | 0.3 | ? | .
CCN(CCCNC(=O)C1CCN(S(=O)(=O)c2cccc3nonc23)CC1)Cc1ccccc1 | -11 | 104 | 95 | -5 | -1.0 | i | 1.1
CCN1CCN(Cc2ccc(OC)c(OCc3ccccc3)c2)CC1 | -86 | 116 | 94 | -9 | -1.1 | i | 0.7
O=C(NCC(=O)N(CC1CCCO1)C(C(=O)NC1CCCCC1)c1ccccc1)c1ccco1 (centres undefined) | . | . | 103 | 6 | . | i | 0.98
COc1ccc(NC(=O)N2CCC(O)(c3cccnc3)CC2)c(OC)c1 | -61 | 152 | 101 | -10 | -1.4 | i | 0.97
N#CCCC(CCC#N)C1=NCCc2ccccc21 | . | . | 110 | . | . | i | 1.1
Cc1ccc(C)c(NS(=O)(=O)c2ccc3[nH]c(=O)[nH]c3c2)c1 | . | . | 112 | . | . | i | 1.1
O=S(=O)(c1ccc(Cl)cc1)n1ccc2cccnc21 | 25 | 139 | 101 | -9 | -1.2 | i | 0.81
O=C(O)CCC(=O)N(Cc1cccs1)Cc1cccs1 | 63 | 118 | 117 | -2 | 0.1 | i | 0.93
CCOC(=O)/C(C)=C1\NC(C)(C)Cc2ccccc21 | -93 | 46 | 103 | -10 | -1.7 | i | 1
Cc1cc(N)n(-c2ccc(Oc3ccccc3)c(S(=O)(=O)O)c2)n1 | 17 | 165 | 105 | -4 | . | i | 0.95
Cc1ccc(C(=O)N2CCN(C)CC2)cc1S(=O)(=O)N1CCCCC1 | . | . | 103 | -7 | -0.5 | i | 1.2
Cc1ccc(-n2cccc2/C=C2\C(=N)N3N=C(C(C)C)SC3=NC2=O)cc1 | -8 | 109 | 104 | -4 | . | i | 0.97
Cc1cc(C)cc(N(CC(=O)NC2CCC(C)CC2)S(=O)(=O)c2c(C)noc2C)c1 (centres undefined) | 29 | 114 | 98 | -4 | -0.1 | i | 1.1
CC(C)c1noc2ncc(C(=O)c3cc(Cl)cc(Cl)c3O)cc12 | -4 | 97 | 93 | -4 | -0.1 | i | 0.97
O=C(CCCN1C(=O)/C(=C/c2cccs2)SC1=S)NNC(=O)c1cccnc1 | . | . | 101 | . | . | i | 1.1
O=C(Nc1ccncc1)c1cccs1 | 10 | 100 | 111 | 12 | -1.6 | i | 0.89
CCCC1=[N+](CC)CCn2c(C)ccc21 | -14 | 113 | 102 | 10 | -2.6 | i | 0.86
Cc1nn(-c2ccccc2)c2c1C(c1cccs1)C(C#N)=C(N)O2 (centres undefined) | -13 | 86 | 120 | -1 | -4.0 | i | 0.97
Cc1ccc(C(=O)NN2CCOCC2)cc1 | 38 | 72 | 101 | -6 | -3.0 | i | 0.76
COc1ccc(NS(=O)(=O)c2ccc3c(c2)n(C)c(=O)n3C)cc1 | 31 | 105 | 100 | -3 | -1.8 | i | 0.64
NC(=O)c1cc2ccccc2o/c1=N\NC(=O)c1ccco1 | . | . | 98 | 5 | -0.7 | i | 0.99
COc1ccc(N(CC(=O)N/N=C/c2ccc3c(c2)OCO3)S(=O)(=O)c2ccc(NC(C)=O)cc2)cc1 | -6 | 119 | 103 | -1 | . | i | 0.85

Exported with two lines to a compound: entries from further up
Fields – INS promoter inh, INS promoter inh cell count, RGS16-Gao HTS, PKD1 inh, GALR2 agonist, HSV replic up, HSV replic up primary fold
- CCCC1=[N+](CC)CCn2c(C)ccc21
→ -14, 113, 102, 10, -2.6, i, 0.86
- Cc1nn(-c2ccccc2)c2c1C(c1cccs1)C(C#N)=C(N)O2 (centres undefined)
→ -13, 86, 120, -1, -4.0, i, 0.97

Part of the list above, as labelled records.
Molecule: O=C(/C=C\NCC(=O)c1ccccc1)c1ccccc1
  INS promoter inh = 53	INS promoter inh cell count = 93	RGS16-Gao HTS = 186	PKD1 inh = -2	GALR2 agonist = -1.5	HSV replic up = i	HSV replic up primary fold = 0.89

Molecule: S=C(NCc1ccc(Cl)cc1)Nc1ccccc1
  INS promoter inh = -44	INS promoter inh cell count = 82	RGS16-Gao HTS = 80	PKD1 inh = -4	GALR2 agonist = -1.6	HSV replic up = i	HSV replic up primary fold = 1

Carrying on.
smiles | INS promoter inh | INS promoter inh cell count | RGS16-Gao HTS | PKD1 inh | GALR2 agonist | HSV replic up | HSV replic up primary fold
O=C(O)C(Oc1ccc2c3c(c(=O)oc2c1)CCC3)c1ccccc1 (centres undefined) | 10 | 78 | 95 | -6 | 0.1 | i | 1
O=c1cc(N2CCCC2)[nH]c(=O)n1-c1ccc(Cl)cc1 | -125 | 165 | 106 | -1 | -1.0 | i | 0.9
Cc1ccc(CSCCNC(=O)CN(c2cc(C)ccc2C)S(C)(=O)=O)cc1 | -12 | 91 | 100 | 5 | . | i | 0.93
O=C(N/N=C/c1cc(Br)ccc1O)c1cccc(N2CCCC2=O)c1 | -9 | 73 | 74 | -13 | -0.9 | i | 0.57
C=CCN=C(NC#N)SCC(=O)NC(C)(C)C | -45 | 112 | i | -3 | -2.5 | i | 1.1
CCOC(=O)c1ccccc1NC(=O)C(C)Oc1ccccc1 (centres undefined) | 6 | 107 | 105 | -5 | -3.9 | i | 0.99
COc1ccc(-c2cc(C(F)(F)F)nc(-n3cc(Cl)cn3)n2)cc1 | 12 | 118 | 102 | -7 | -1.7 | i | 0.85
CC(C)c1c(O)nc(SCc2ccccc2)[nH]c1=O | . | . | 106 | -6 | -1.1 | i | 0.97
COc1ccc2c(CC(=O)Nc3nc(C)cs3)coc2c1 | -3 | 122 | 95 | -8 | . | i | 1.2
C[N+]1(CCC(=O)c2ccccc2)CCCCC1 | 64* | 62* | 102 | -15 | -1.9 | i | 1
COc1cc(C(C(=O)Nc2c(C)cccc2C)N(C)C(=O)c2ccc(-n3cnnn3)cc2)ccc1O (centres undefined) | . | . | 96 | . | . | i | 0.9
O=C(NCC1CCCO1)C(c1ccncc1)N(Cc1cccs1)C(=O)Cn1nnc(-c2ccc(F)cc2)n1 (centres undefined) | 19 | 75 | 108 | 0 | . | i | 1
CCOP(=O)(OCC)/C(=N/OC(=O)c1ccc(OC)cc1)C(N)=O | . | . | 89 | . | . | i | 1.1
CN1CCN(C(=O)c2cn(-c3ccccc3)nc2-c2cccs2)CC1 | . | . | 101 | -2 | . | i | 0.98
COc1ccc(S(=O)(=O)N2Cc3ccccc3CC2C(=O)Nc2ccc3c(c2)OCO3)cc1 (centres undefined) | 17 | 39 | 95 | 1 | -0.6 | i | 0.87
O=C(O)CCN=C1CCc2ccccc2N1 | 50 | 116 | 102 | -7 | -2.5 | . | .
COc1ccc(C(=O)Nc2ccc(S(=O)(=O)Nc3cc(C)nc(C)n3)cc2)cc1 | . | . | 98 | . | . | i | 0.88
CCS(=O)(=O)NCCc1csc(C)n1 | -7 | 122 | 94 | -9 | -3.5 | i | 1.1
COC(=O)c1ccc(C(=O)OC)c(NC(=O)C2CC2)c1 | 0 | 151 | 103 | -6 | -0.4 | i | 0.9

Screening results (PubChem BioAssay)
